YopH PTP inh: YopH (Yersinia) phosphatase inhibition. fluorescence Ex485/Em525. inhibition, %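 (about 10 µM by stock and volumes)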. actives 0.16% (n = 140,000);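 active = inhibition of 50% or more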;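 also: controls were vehicle for no effect and minimum signal wells for full effect; inactives centre near -20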
Arbovirus anti: arbovirus infection inhibition | actives 0.37% (n = 200,000) | AID 1251 | inhibition, % at 10 µM | arbovirus infection cell-based antiviral screen;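 active = inhibition from about 30%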;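 also: bluetongue infection of BSR cells; cell survival read as ATP light after 72 h; 0% = infected wells without compound and 100% = uninfected wells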
RecA intein inh: Mtb RecA intein splicing inhibition. actives 0.75% (n = 290,000). cell-free RecA intein splicing, fluorescence. P9WHJ3. AID 2221. inhibition, %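 (about 9 µM by stock and volumes)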; in the data active = inhibition above about 30%; inconclusive = no clear call, values can overlap the other calls;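 also: 0% = vehicle wells and 100% = reference inhibitor control wells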
Target sequence (P9WHJ3 whole entry, looked up): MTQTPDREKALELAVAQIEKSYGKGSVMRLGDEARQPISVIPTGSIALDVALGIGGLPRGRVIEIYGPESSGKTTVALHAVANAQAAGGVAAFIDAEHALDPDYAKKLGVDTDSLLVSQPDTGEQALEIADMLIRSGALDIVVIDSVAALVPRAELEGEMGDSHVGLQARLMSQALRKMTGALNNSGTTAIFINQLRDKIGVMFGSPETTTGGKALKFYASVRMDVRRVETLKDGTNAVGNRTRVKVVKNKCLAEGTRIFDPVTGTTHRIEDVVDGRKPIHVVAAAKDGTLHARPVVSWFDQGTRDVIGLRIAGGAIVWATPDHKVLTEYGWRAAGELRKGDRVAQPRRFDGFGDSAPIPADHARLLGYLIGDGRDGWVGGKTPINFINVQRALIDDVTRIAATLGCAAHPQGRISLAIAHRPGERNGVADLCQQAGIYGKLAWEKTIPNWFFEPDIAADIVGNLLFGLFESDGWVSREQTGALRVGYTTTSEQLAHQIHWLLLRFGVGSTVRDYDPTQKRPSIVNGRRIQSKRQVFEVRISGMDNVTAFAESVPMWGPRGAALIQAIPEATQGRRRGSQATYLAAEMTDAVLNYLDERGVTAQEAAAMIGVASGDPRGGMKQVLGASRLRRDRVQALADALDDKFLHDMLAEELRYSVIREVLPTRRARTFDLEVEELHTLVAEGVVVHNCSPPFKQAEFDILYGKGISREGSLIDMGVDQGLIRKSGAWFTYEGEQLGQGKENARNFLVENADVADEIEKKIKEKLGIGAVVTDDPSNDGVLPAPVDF
Mtb betalactam: beta-lactam sensitization of Mtb H37Rv. M. tuberculosis H37Rv growth with meropenem, percent inhibition; hits of this screen are not shown here. inhibition, % at 25 µM. actives 0.27% (n = 330,000). AID 434955;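 active = about 74% or more and at least 40 points above the plate without the antibiotic, then above 30% in a dose series; inconclusive = first-round hits that could not be retested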;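 also: growth measured after seven days incubation then overnight dye step; 0% = bacteria only wells and 100% = bacteria with antibiotic; twin plates without the antibiotic show which effects depend on it; some results filed as inactive read as strong as hits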
Mtb growth: M. tuberculosis H37Rv growth inhibitors, H37Rv strain (AID 1626). M. tuberculosis H37Rv growth inhibition; higher % means a stronger effect. inhibition, % at 10 µM; hits with a dose series show IC50 in µM. actives 0.95% (n = 220,000);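 active = confirmed in a dose series; inconclusive = inhibition above 80% but not taken into the dose series; inactive = below 80% or under 30% at every dose of the series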;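 also: bacteria incubated seven days before Alamar blue readout; 0% = bacteria only wells and 100% = bacteria with antibiotic wells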
An asterisk follows results filed as active; u = inconclusive; x = no result given. This is a subset; the hit share may differ from the screen's.

SMILES	YopH PTP inh	Arbovirus anti	RecA intein inh	Mtb betalactam	Mtb growth
COc1ccc(C(C(=O)NC2CCCCC2)N(C(=O)c2ccco2)c2ccccc2OC)cc1 (configuration not stated)	x	x	5.5	-5	x
N=c1oc2ccc3ccccc3c2cc1C(N)=S	x	-7	-114	50	18%
Cc1nc2ccccc2nc1OCC(=O)NCc1ccc2c(c1)OCO2	-18	-1	2.1	-5	-14%
O=C(CC1C(=O)NCCN1Cc1cccc(F)c1)NC1CCCCC1 (configuration not stated)	x	x	-3.2	-13	x
COc1ccccc1Cn1c(=S)[nH]c2ccc(F)cc2c1=O	x	x	0.6	1	x
Cc1ncoc1C(=O)N1CCCC(C(=O)c2ccc3c4c(cccc24)CC3)C1 (configuration not stated)	x	12	-0.4	0	3%
CCC(CC)C(=O)Nc1cccc(/C(C)=N/NC(=O)c2c(Br)cnn2C)c1	0	4	-1.2	-7	4%
COc1cccc(C(=O)NCC2CCCN(C3CCCCC3)C2)c1OC (configuration not stated)	x	x	-1.8	3	x
CC(=O)N/N=c1\sc2ccccc2n1C	x	-2	-3.5	2	6%
CC(C)c1ccc2oc(-c3cc(N)ccc3O)nc2c1	-33	-28	-5.4	96	-6%
O=C(Nc1nccs1)c1ccc(CSc2ccccc2)o1	x	x	2.0	-16	x
COc1ccc(C(=O)N[C@H](C(=O)N2CCN(c3ccccc3F)CC2)C(C)C)cc1	x	2	0.6	-3	7%
O=C(NNc1c(Cl)cccc1Cl)C1CCC1	x	x	-0.6	12	-1%
COCCn1c(C)cc(C2=NNC(=Nc3ccccc3)SC2)c1C	-3	1	3.3	-4	-1%
Cn1cc(CN2CCCC(CO)(Cc3ccccc3)C2)cn1 (configuration not stated)	x	-7	0.2	-2	-4%
O=C(NNC(=S)Nc1cccc(Cl)c1)c1ccccc1OC(F)F	1	-6	2.3	9	6%
O=C(CSc1nnc2ccccn12)Nc1ccccc1C(=O)NC1CC1	-35	3	2.2	1	1%
C=CCn1c(CCC(=O)O)ccc1-c1ccccc1	-20	10	0.4	4	-3%
CC(=O)Nc1cccc(NC(=O)CSc2ccc(-c3ccccn3)nn2)c1	x	-36	-1.7	-4	6%
O=C(CN1C(=O)c2cccc3cccc1c23)NCc1ccncc1	-13	5	-23	-11	-8%
Nn1c(=O)[nH]c2c([nH]c3ccccc32)c1=O	x	16	-0.4	-4	-11%
COc1ccc(/C(N)=N/OC(=O)c2cccs2)cc1OC	x	0	1.5	4	-5%
CN(C)CCCNC(=O)/C(=C/c1ccc(-c2ccc([N+](=O)[O-])cc2)o1)NC(=O)c1ccccc1	x	x	-0.6	-2	x
CCn1c(=O)cc(OCC(=O)N2CCN(C(=O)c3ccco3)CC2)c2ccccc21	17	1	1.1	-8	-3%
O=S(=O)(/N=C(/Nc1ccc(F)c(F)c1F)c1ccccc1)c1ccccc1	-45	3	-4.0	8	2%
CCOc1ccc(S(=O)(=O)Nc2cccc(C(=O)NCC(C)(C)N3CCOCC3)c2)cc1	x	x	0.0	-1	x
Cc1ccc(-c2nnc(SCC(=O)NC(=O)Nc3ccc(C)cc3C)n2N)cc1	-22	-1	-0.6	3	-4%
CCc1ccc(-c2nc(CS(=O)CC(=O)NCCCN3CCOCC3)c(C)o2)cc1 (configuration not stated)	x	x	4.8	-10	x
O=C(COc1ccc(S(=O)(=O)N2CCOCC2)cc1)Nc1cccc([N+](=O)[O-])c1	x	x	-4.5	3	x
O=c1[nH]c(CN2CCN(S(=O)(=O)/C=C/c3ccccc3)CC2)nc2cc(Cl)ccc12	x	x	-13	68	-6%
CN(C)S(=O)(=O)c1ccc2nc(NC(=O)c3cccnc3)sc2c1	-8	0	-3.3	-4	-2%
CCOC(=O)C1CCCN1C(=O)c1ccc(OC)c(Br)c1 (configuration not stated)	x	0	-3.9	0	2%
CCCC[C@@H]1CNC(=S)N1CCCC	x	3	-0.9	-5	1%
Cc1cc(-n2c(C)cc(C(=O)COc3ccccc3[N+](=O)[O-])c2C)no1	x	-13	-3.2	0	0%
CC1(c2cccc(Br)c2)NC(=O)N(CC(=O)Nc2cccnc2Cl)C1=O (configuration not stated)	x	x	-0.7	-14	x
CC1Oc2ccccc2OC1C(=O)Nc1nccs1 (configuration not stated)	x	x	0.2	-1	x
COc1ccc2[nH]c3c(NCCCOC(C)C)ncnc3c2c1	x	x	1.0	-2	x
CN(c1ccccc1C(=O)N1CCN(Cc2ccc3c(c2)OCO3)CC1)S(C)(=O)=O	x	6	-1.4	0	-1%
C/C(=N/OC(=O)c1c(-c2c(F)cccc2Cl)noc1C)c1cnccn1	x	4	0.0	4	2%
CCn1nnc(NC(=O)COc2cc(C)ccc2C(C)C)n1	2	2	0.4	65	-4%
C=CCSc1ncc(CO)n1Cc1ccccc1	x	0	3.0	3	10%
COc1ccc(C(=O)NN(C)c2nc(-c3ccccc3)nnc2C(F)(F)F)cc1	-2	8	-2.4	-8	x
Cc1nn(C)c(C(=O)Nc2ccc3c(c2)OCO3)c1[N+](=O)[O-]	x	x	1.9	-3	x
COc1ccc(CCNC(=O)CNS(=O)(=O)c2ccc(Cl)cc2)cc1	x	x	-2.1	-1	x
COc1ccccc1N(CC(=O)NCCSCc1cccc(Cl)c1)S(C)(=O)=O	x	x	1.0	-5	x
CC(C)Oc1ccc(C(=O)NC2=NCCS2)cc1	x	1	1.5	-3	-4%
Cc1ccc(C(=O)NC(=S)Nc2cccc3c(C)cc(C)nc23)cc1	-34	-11	1.1	93	u
Fc1ccc(-n2c(-c3ccc4ccccc4n3)n[nH]c2=S)cc1Cl	x	3	-0.7	-8	3%
Cc1nn(CC(=O)Nc2ccc(C(C)C)cc2)c(C)c1[N+](=O)[O-]	x	5	0.6	0	4%
O=C1/C(=C\c2ccccc2)CCc2c1[nH]c1ccccc21	-16	-12	2.7	-3	2%
Cc1cc(C(=O)N/N=C/c2ccc(OCc3ccccc3)cc2)c(C)o1	x	-33	11	11	-1%
CCN1CCN(CCCNC(=O)C(=O)c2c(C)[nH]c3ccccc23)CC1	x	9	2.3	3	-1%
O=C(Nc1ccc(O)cc1)/C(=C\C=C\c1ccccc1)NC(=O)c1ccccc1	x	x	7.8	-7	3%
CCc1nnc(NC(=O)C(CC)CC)s1	x	x	1.2	-3	2%
O=C(O)c1cc(-c2ccccc2)on1	-16	0	0.8	4	-4%
O=C(CNC(=O)c1ccc(S(=O)(=O)N2CCCC2)cc1)N/N=C/c1ccc(F)cc1	x	2	-1.5	-3	-5%
O=C(NCc1nc2ccccc2[nH]1)c1ccccc1F	x	x	2.0	-12	-13%
O=C1CCC(C(=O)N2CCc3c(Cl)cccc3C2)CN1CCCN1CCOCC1 (configuration not stated)	x	x	-1.2	-5	x
CCOc1ccc(NC(=O)c2ccc3c(=O)n(-c4ccc(OC)cc4OC)c(=S)[nH]c3c2)cc1	x	x	8.9	4	x
CCOC(=O)c1c(-c2ccccc2)nc2ccc(C)cn12	-4	-8	3.1	19	56%
Other compounds follow.
SMILES	YopH PTP inh	Arbovirus anti	RecA intein inh	Mtb betalactam	Mtb growth
O=C(CN1CCOCC1)Nc1ncc(Cc2cccc3ccccc23)s1	-32	8	-1.5	81	5%
Cc1ccnc(SCc2nc3ccccc3s2)n1	8	0	-1.5	-4	10%
COc1ccc(/C=C(\C#N)C(=O)NCC2CCCO2)cc1OC (configuration not stated)	-33	7	-2.1	-2	7%
O=C(/C=C(\O)c1ccc(Cl)cc1)C(=O)NNC(=O)C(O)(c1ccccc1)c1ccccc1	6	-12	x	u	-8%
Cc1ncc(CN2CCC(CO)(Cc3ccccc3)CC2)s1	x	-1	-3.4	-7	x
CC(=O)Nc1ccc(Nc2nc3c(S(=O)(=O)c4ccc(C)c(C)c4)nnn3c3ccccc23)cc1	x	-6	-3.8	6	5%
COc1cc(OC)cc(C(=O)N2CCN(Cc3cccc(F)c3)CC2)c1	-36	-1	-2.3	-1	3%
Cc1c(C(=O)O)cccc1N1C(=O)Nc2ccccc2N1O	-12	7	-3.1	2	5%
O=C(Nc1ccc2cn[nH]c2c1)c1c(Cl)cccc1Cl	-21	-4	1.2	-5	-9%
CC(=O)Nc1cccc(NC(=O)C2CC(=O)N(c3ccc(C)cc3)C2)c1 (configuration not stated)	3	-6	-1.3	-2	-16%
Cc1nc(NC(=O)c2cccc(Cl)c2)sc1C(=O)N1CCCCC1	x	-1	-0.1	4	8%
CC(=O)/C(=N/Nc1cccc(C)c1)N1CCOCC1	-26	-46	-2.0	91	x
O=C(NCc1ccco1)c1ccc(S(=O)(=O)N2CCOCC2)cc1	3	3	0.5	2	2%
Cc1nn(CCOc2cccc(Cl)c2)c(C)c1[N+](=O)[O-]	x	x	1.2	6	x
COc1ccc(NC(=O)C2CCCN(C(=O)NC3CCCCC3)C2)cc1OC (configuration not stated)	-39	1	-4.2	6	-2%
C#CCOc1ccc(/C=N/O)cc1Cl	-8	0	-0.1	3	10%
CCCCn1nnnc1SCC(=O)NNC(=O)C1CCCCC1	-18	6	-4.8	1	-8%
COc1ccc(C(=O)NCC(=O)N/N=C/c2ccc([N+](=O)[O-])s2)cc1OC	x	-11	-2.3	98	u
CN1CCCC(OC(=O)c2cc(Cl)ccc2Cl)C1 (configuration not stated)	-9	-2	1.2	-10	-5%
CCN(CC)S(=O)(=O)c1cccc(C(=O)N2CC(O)CC2C(=O)O)c1 (configuration not stated)	-40	1	-3.6	-3	-1%
O=C1COc2ccc(C(=O)NC3CC3)cc2N1	x	-4	x	-2	-3%
COC(=O)c1ccc(NC(=O)Cn2cnc3c(nnn3-c3cccc(OC)c3)c2=O)cc1	x	1	-4.2	4	-1%
COc1ccc(C(=O)/C=C(\C)Nc2ccc3c(c2)OCO3)cc1	-25	-12	9.2	95	53%

Sorted by length of the SMILES (rising): 16 of the compounds above
SMILES	YopH PTP inh	Arbovirus anti	RecA intein inh	Mtb betalactam	Mtb growth
C#CCOc1ccc(/C=N/O)cc1Cl	-8	0	-0.1	3	10%
O=C1COc2ccc(C(=O)NC3CC3)cc2N1	x	-4	x	-2	-3%
CN1CCCC(OC(=O)c2cc(Cl)ccc2Cl)C1 (configuration not stated)	-9	-2	1.2	-10	-5%
CC(=O)/C(=N/Nc1cccc(C)c1)N1CCOCC1	-26	-46	-2.0	91	x
Cc1ncc(CN2CCC(CO)(Cc3ccccc3)CC2)s1	x	-1	-3.4	-7	x
O=C(Nc1ccc2cn[nH]c2c1)c1c(Cl)cccc1Cl	-21	-4	1.2	-5	-9%
COc1ccc(/C=C(\C#N)C(=O)NCC2CCCO2)cc1OC (configuration not stated)	-33	7	-2.1	-2	7%
Cc1nn(CCOc2cccc(Cl)c2)c(C)c1[N+](=O)[O-]	x	x	1.2	6	x
COc1ccc(C(=O)/C=C(\C)Nc2ccc3c(c2)OCO3)cc1	-25	-12	9.2	95	53%
COc1cc(OC)cc(C(=O)N2CCN(Cc3cccc(F)c3)CC2)c1	-36	-1	-2.3	-1	3%
COc1ccc(NC(=O)C2CCCN(C(=O)NC3CCCCC3)C2)cc1OC (configuration not stated)	-39	1	-4.2	6	-2%
CC(=O)Nc1cccc(NC(=O)C2CC(=O)N(c3ccc(C)cc3)C2)c1 (configuration not stated)	3	-6	-1.3	-2	-16%
COc1ccc(C(=O)NCC(=O)N/N=C/c2ccc([N+](=O)[O-])s2)cc1OC	x	-11	-2.3	98	u
COC(=O)c1ccc(NC(=O)Cn2cnc3c(nnn3-c3cccc(OC)c3)c2=O)cc1	x	1	-4.2	4	-1%
O=C(/C=C(\O)c1ccc(Cl)cc1)C(=O)NNC(=O)C(O)(c1ccccc1)c1ccccc1	6	-12	x	u	-8%
CC(=O)Nc1ccc(Nc2nc3c(S(=O)(=O)c4ccc(C)c(C)c4)nnn3c3ccccc23)cc1	x	-6	-3.8	6	5%
